Calb FLC: C. albicans growth modulation with fluconazole; AID 1979; C. albicans CaCi-2 (fluconazole-resistant clinical isolate) + fluconazole, Alamar Blue growth, 48 h; growth inhibition, % (concentration not given with the values); 0.57% of 300,000 active;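 active = most replicates above 75%; inconclusive = exactly half above 75%; inactive = most below 75%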;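 also: all wells also contain fluconazole at 8 µg/ml as a sub-toxic cotreatment; 0% = median of DMSO wells and 100% = median of geldanamycin control wells; wells of about 8 µL received 7.5 nL stock; the first replicate is given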
T cruzi repl: T. cruzi replication inhibition; T. cruzi beta-gal in NIH3T3, luminescence, 90 h; inhibition, % (no concentration beside the values); 1.4% of 300,000 active; AID 1885;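 active = mean inhibition across valid replicates above about 55%, limit read from the data; inconclusive = mean below that limit but half or more replicates reach it; inactive = mean below it, under half of replicates reach it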;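 also: signal also drops with host cell toxicity which is not excluded here; 0% = plate median of DMSO wells and 100% = zero luminescence signal; higher percent means less beta-gal luminescence so fewer parasites; stock transfer was 50 nL into about 50 µL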
Bfl-1 A1 inh: inhibitors of the anti-apoptotic protein A1, read as caspase activation. 0.066% of 330,000 active. AID 2462. MEF A1-2A-BIM cells, Caspase-Glo 3/7 luminescence, 3 h; percent of clofoctol response, vehicle zero. caspase activation, % (concentration not given with the values);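 active = over half of replicate activation scores above 10%, or exactly half above 10 with the replicate mean above 10; inconclusive = replicate mean below 10 yet half the replicates above 10; inactive = over half of replicates below 10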;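 also: wells of about 30 µL received 50 nL stock; many hits fall short of the cut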
UCH37 DUB inh: inhibitors of human deubiquitinating enzyme UCH37. inhibition, % (no concentration beside the values). 0.33% of 330,000 active. purified proteasome/UCH37, Ub-AMC cleavage fluorescence. Q9Y5K5. AID 588478;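 active = mean of two replicates above 20%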;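 also: 0% = compound-free wells with enzyme and 100% = wells lacking proteasome; stock transfer was 100 nL into about 20 µL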
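Test system – human UCH37 enzyme supplied as purified proteasome complex · Incubation – 30 min preincubation with enzyme, 25 min cleavage at room temperature · Detection – AMC fluorescence from Ub-AMC cleavage, excitation 355 nm, emission 460 nm · Benchmarks – no-proteasome wells (full inhibition) and compound-free wells (no inhibition)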
LANA-H2B inh: blocks KSHV LANA binding to histone H2A/H2B; Q9QR71; 0.6% of 320,000 active; cell-free LANA-H2A/H2B peptide, fluorescence polarization; AID 2629; inhibition, % (no concentration beside the values); in the data active = inhibition mostly above about 10%, no sharp cut-off; inactive = mostly below about 6.7%;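 also: stock transfer was 7.5 nL into about 10 µL; 0% = median of vehicle wells and 100% = median of positive control wells; one replicate is shown; the record names a cut of 25% in any replicate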
Target sequence (Q9QR71 whole entry, looked up): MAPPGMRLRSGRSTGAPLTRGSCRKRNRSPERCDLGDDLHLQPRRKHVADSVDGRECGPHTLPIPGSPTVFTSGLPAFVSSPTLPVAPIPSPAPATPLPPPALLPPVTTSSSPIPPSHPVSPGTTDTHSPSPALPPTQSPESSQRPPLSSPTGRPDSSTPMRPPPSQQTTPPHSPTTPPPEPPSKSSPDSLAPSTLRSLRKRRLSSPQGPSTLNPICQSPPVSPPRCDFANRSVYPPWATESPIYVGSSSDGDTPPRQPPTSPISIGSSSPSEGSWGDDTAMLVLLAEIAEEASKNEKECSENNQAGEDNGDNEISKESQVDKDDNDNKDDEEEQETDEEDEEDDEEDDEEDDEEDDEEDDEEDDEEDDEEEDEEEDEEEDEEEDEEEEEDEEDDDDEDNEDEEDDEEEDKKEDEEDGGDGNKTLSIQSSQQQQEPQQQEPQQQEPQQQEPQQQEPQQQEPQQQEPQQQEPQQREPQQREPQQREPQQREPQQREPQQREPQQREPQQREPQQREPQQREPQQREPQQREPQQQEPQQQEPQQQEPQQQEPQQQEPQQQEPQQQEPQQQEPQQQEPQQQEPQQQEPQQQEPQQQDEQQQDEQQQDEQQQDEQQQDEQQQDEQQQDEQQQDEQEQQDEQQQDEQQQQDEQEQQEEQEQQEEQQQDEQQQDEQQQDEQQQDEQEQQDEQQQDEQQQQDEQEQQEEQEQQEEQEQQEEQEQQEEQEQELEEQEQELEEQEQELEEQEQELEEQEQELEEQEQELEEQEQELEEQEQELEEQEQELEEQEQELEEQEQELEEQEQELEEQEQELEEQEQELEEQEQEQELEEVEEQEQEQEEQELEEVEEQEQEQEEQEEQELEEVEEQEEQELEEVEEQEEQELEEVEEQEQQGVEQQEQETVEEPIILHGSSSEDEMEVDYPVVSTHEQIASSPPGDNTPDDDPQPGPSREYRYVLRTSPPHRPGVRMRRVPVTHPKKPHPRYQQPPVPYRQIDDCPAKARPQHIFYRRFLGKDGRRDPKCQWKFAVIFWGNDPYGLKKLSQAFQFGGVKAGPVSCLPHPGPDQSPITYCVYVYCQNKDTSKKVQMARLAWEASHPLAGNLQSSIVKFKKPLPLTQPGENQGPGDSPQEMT
Beta apoptosis: blocks beta cell apoptosis; INS-1E cytokine-induced death, ATP luminescence, 48 h; percent of positive-control rescue, neutral wells zero; protection from apoptosis, % (concentration not given with the values); 0.8% of 300,000 active; AID 435005;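 active = all replicates at 75% or more, or half of them and the mean; inconclusive = half reach 75% but not the mean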;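 also: 0% = cytokine-treated negative control wells and 100% = positive control rescue; higher means more ATP so stronger rescue from cytokine killing; wells of about 40 µL received 100 nL stock; the first replicate is given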
RanGTP-Impb inh: inhibitors of RanGTP-importin-beta interaction, primary screen, biochemical, FRET, CFP-Ran, YFP-importin-beta, homogeneous; cell-free CFP-Ran/YFP-importin-beta FRET ratio; inhibition, % (no concentration beside the values); 1.1% of 300,000 active;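 active = most replicates above 15%; inconclusive = exactly half above 15%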;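 also: 0% = DMSO wells and 100% = Ran loaded with GDP instead of GTP; wells of about 40 µL received 100 nL stock; the first replicate is given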
B2AR ag: human beta-2 adrenergic receptor agonism by FAP; P07550; Am2.2-beta2AR cells, FAP receptor internalization, flow cytometry; reference of the scale not given here; response, % (concentration not given with the values); 0.43% of 340,000 active; AID 504454;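 active = response above a set limit, near 3 SD of response in nonfluorescent compounds, cut at about 42% in these data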;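 also: stock transfer was 100 nL into about 11 µL; a reference agonist was the positive control; negative values mostly stem from fluorescent compounds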
The depositor's hits bear a star; ? = inconclusive; . = not tested or not shown.

SMILES	Calb FLC	T cruzi repl	Bfl-1 A1 inh	UCH37 DUB inh	LANA-H2B inh	Beta apoptosis	RanGTP-Impb inh	B2AR ag
O=C(COc1ccccc1)Nc1ccc2oc(=O)ccc2c1	-1	-6	0.0	-37	-0.7	-5	0.4	8
NNC(=O)c1csc(-c2ncc(C(F)(F)F)cc2Cl)n1	4	-11	0.3	6.5	-4.7	5	-1.0	-15
O=C(NCc1ccccn1)c1nn(-c2ccccc2)c(=O)c2ccccc12	5	-13	0.3	3.2	4.5	-5	-0.2	1
O=C(CS(=O)CC(=O)N(c1ccccc1)C(C(=O)NC1CCCC1)c1cccs1)Nc1ccc(F)cc1 (stereo not given)	31	-13	2.3	.	3.4	1	6.1	10
CC(=O)Nc1ccccc1C(=O)N1CCc2ccccc21	-2	-3	-0.1	2.6	12	1	0.9	-3
Cn1c(COc2ccccc2)nnc1SCc1cc(=O)[nH]c2ccccc12	18	1	0.2	5.5	2.8	-7	1.4	-4
CSc1nnc(-c2ccccc2N=Cc2c(C)[nH]n(-c3ccc4ccccc4c3)c2=O)c(=O)[nH]1	14	1	-7.4	13	2.8	16	1.6	10
Cc1cc(C)c(NC(=O)CNC(=O)CN2C(=O)NC3(CCCc4ccccc43)C2=O)c(C)c1 (stereo not given)	3	-7	0.7	4.5	-3.6	-6	-2.4	-9
CS(=O)(=O)n1nc(-c2ccccc2)nc1N	9	-18	1.4	2.2	-0.6	1	6.0	3
CCn1c(SC/C=C/c2ccccc2)nnc1-c1cccs1	-1	-24	0.2	3.1	-2.7	-1	-0.2	38
O=C(COC(=O)CN1C(=O)COc2ccccc21)NCc1ccc(F)cc1	2	7	0.7	0.2	4.6	.	?	11
Cc1ccc(C(=O)Nc2ccccc2C(=O)O)cc1S(=O)(=O)NCc1ccccc1	-10	-2	-0.9	1.6	0.2	1	1.4	-3
Cc1ccc(C(=O)CNc2ccc(C)c(Cl)c2)cc1	1	-24	-0.8	5.7	-1.9	2	10	8
O=C(NC1C2CC3CC(C2)CC1C3)c1ccc(N2CCNCC2)c([N+](=O)[O-])c1 (stereo not given)	7	-10	-0.1	4.8	-0.2	4	6.1	4
Cc1cc(N)n(-c2ccc(S(=O)(=O)c3ccc(C(C)C)cc3)cc2)n1	-4	-33	-0.6	3.0	-1.7	-2	1.7	-2
Cc1cc(-c2nc(C)c(-c3nnc(SCC(=O)Nc4ccccc4)n3C)s2)no1	-6	31	-0.6	-158	3.2	.	-0.2	-16
O=C1N=C(N2CCN(Cc3ccccc3)CC2)S/C1=C/c1cccs1	32	-8	-0.2	7.1	-5.5	1	?	4
CN(C)CCNC(=O)C(=O)NCC1CCCN1S(=O)(=O)c1cccs1 (stereo not given)	-5	-2	0.0	-1.2	5.6	.	-3.4	-4
COCCCN(Cc1cccs1)S(=O)(=O)c1csc(C(N)=O)c1	10	-3	-1.5	2.3	3.2	-9	4.6	-12
CCOc1ccc(CNC(=O)CCC(=O)N2Cc3ccccc3Oc3ncccc32)cc1	-6	4	-0.2	1.6	2.6	-13	0.1	-6
CC(C)=CCC/C(C)=C/CNC(=O)CC1C[C@H](C(=O)N(C(C)C)C(C)C)[C@@]2(C)c3[nH]c4ccccc4c3CCN2C1=O (stereo not given in full)	.	.	-0.3	4.2	1.2	10	.	5
COc1ccc(-n2c(=O)cc(N3CCOCC3)[nH]c2=O)cc1	-10	-6	0.5	5.7	0.9	-4	1.2	0
O=C(c1ccc2c(=O)n3c(nc2c1)CCCCC3)N1CCN(c2ccc([N+](=O)[O-])cc2)CC1	9	4	0.1	8.3	-2.5	5	-2.3	-8
COc1ccc(NC(=O)CSc2nnc(Cc3cccn3C)n2-c2ccc(F)cc2)cc1OC	7	-9	0.9	0.2	-0.9	1	-2.6	5
CCN(CC)CC(=O)Nc1ccc(/C(C)=N/NC2=NCCN2)cc1	-8	-7	0.1	.	0.0	-4	?	0
O=C(O)C1C2CCC(C2)C1C(=O)Nc1cc(F)ccc1F (stereo not given)	-5	-6	0.9	5.0	-1.5	-2	-2.4	-5
CC1=C(C(=O)OC2CCCCCCC2)C(c2cc3c(cc2Br)OCO3)CC(=O)N1 (stereo not given)	8	8	1.3	5.0	2.0	16	?	4
O=C(CC1C(=O)NCCN1Cc1c(F)cccc1Cl)NCCCN1CCCC1=O (stereo not given)	1	-26	0.2	1.5	-1.2	3	-2.1	-2
O=C(O)CSC(=S)N1CCCCC1	4	0	-0.2	1.0	-0.4	-1	-0.5	8
COCc1ccc(CN2CCCC(C(=O)Nc3ccc(-c4cccc(OC)c4)cc3)C2)o1 (stereo not given)	1	-2	-0.3	4.4	-0.7	-3	1.2	30
Cc1cc(C)cc(OCC(=O)OCC(=O)NC2CCCCCCC2)c1	-1	-15	0.0	0.5	1.1	-4	-0.9	0
CCc1ccc(/C=N/n2c(C)cc(C)c(C#N)c2=O)cc1	0	9	-1.3	.	0.5	-1	-0.2	-16
O=C(O)/C=C\C(=O)Nc1ccccc1N1CCN(c2ccccc2)CC1	-5	-5	-0.2	2.6	1.4	-9	-0.2	2
CSc1nc2ccc(NC(=O)c3ccc(F)c(F)c3)cc2s1	35	-12	-0.1	-16	-26	.	0.3	-8
CCOc1ccc(N2C(=O)NC(Cc3c[nH]c4ccccc34)C2=O)cc1 (stereo not given)	0	17	0.9	0.9	1.3	-7	-3.1	1
COC(=O)CCCCCCCC(=O)Nc1nnc(C(F)(F)F)s1	-5	0	0.1	2.7	2.1	-4	4.6	0

In another format: entries from further up
smiles | Calb FLC | T cruzi repl | Bfl-1 A1 inh | UCH37 DUB inh | LANA-H2B inh | Beta apoptosis | RanGTP-Impb inh | B2AR ag
COc1ccc(NC(=O)CSc2nnc(Cc3cccn3C)n2-c2ccc(F)cc2)cc1OC | 7 | -9 | 0.9 | 0.2 | -0.9 | 1 | -2.6 | 5
CCN(CC)CC(=O)Nc1ccc(/C(C)=N/NC2=NCCN2)cc1 | -8 | -7 | 0.1 | . | 0.0 | -4 | ? | 0
O=C(O)C1C2CCC(C2)C1C(=O)Nc1cc(F)ccc1F (stereo not given) | -5 | -6 | 0.9 | 5.0 | -1.5 | -2 | -2.4 | -5
CC1=C(C(=O)OC2CCCCCCC2)C(c2cc3c(cc2Br)OCO3)CC(=O)N1 (stereo not given) | 8 | 8 | 1.3 | 5.0 | 2.0 | 16 | ? | 4
O=C(CC1C(=O)NCCN1Cc1c(F)cccc1Cl)NCCCN1CCCC1=O (stereo not given) | 1 | -26 | 0.2 | 1.5 | -1.2 | 3 | -2.1 | -2
O=C(O)CSC(=S)N1CCCCC1 | 4 | 0 | -0.2 | 1.0 | -0.4 | -1 | -0.5 | 8
COCc1ccc(CN2CCCC(C(=O)Nc3ccc(-c4cccc(OC)c4)cc3)C2)o1 (stereo not given) | 1 | -2 | -0.3 | 4.4 | -0.7 | -3 | 1.2 | 30
Cc1cc(C)cc(OCC(=O)OCC(=O)NC2CCCCCCC2)c1 | -1 | -15 | 0.0 | 0.5 | 1.1 | -4 | -0.9 | 0
CCc1ccc(/C=N/n2c(C)cc(C)c(C#N)c2=O)cc1 | 0 | 9 | -1.3 | . | 0.5 | -1 | -0.2 | -16
O=C(O)/C=C\C(=O)Nc1ccccc1N1CCN(c2ccccc2)CC1 | -5 | -5 | -0.2 | 2.6 | 1.4 | -9 | -0.2 | 2
CSc1nc2ccc(NC(=O)c3ccc(F)c(F)c3)cc2s1 | 35 | -12 | -0.1 | -16 | -26 | . | 0.3 | -8
CCOc1ccc(N2C(=O)NC(Cc3c[nH]c4ccccc34)C2=O)cc1 (stereo not given) | 0 | 17 | 0.9 | 0.9 | 1.3 | -7 | -3.1 | 1
COC(=O)CCCCCCCC(=O)Nc1nnc(C(F)(F)F)s1 | -5 | 0 | 0.1 | 2.7 | 2.1 | -4 | 4.6 | 0

Other entries:
SMILES	Calb FLC	T cruzi repl	Bfl-1 A1 inh	UCH37 DUB inh	LANA-H2B inh	Beta apoptosis	RanGTP-Impb inh	B2AR ag
COc1ccc(/C(C)=N/OCC(=O)Nc2nc3ccccc3s2)cc1OC	11	5	0.7	.	.	6	-1.2	0
Cc1ccc2nc(CCc3nc4ccc(C)cc4o3)oc2c1	5	5	0.8	-0.6	0.7	1	1.6	1
CC(C)c1ccccc1NC(=S)NC(=O)C1CCCCC1	.	.	2.0	0.3	0.4	-7	.	6
CCCc1nn2c(=O)c(C(c3cccc(Cl)c3)c3c(O)nc4sc(CCC)nn4c3=O)c(O)nc2s1	2	-8	0.7	3.9	0.4	-1	2.3	3
CCc1ccc2nc(SCC(=O)Nc3nnc(C)s3)c(C)cc2c1	-9	-16	0.8	-7.2	-0.4	-4	3.0	-14
COc1ccc(OCc2cc(C(=O)N3CCC(c4ccccc4)CC3)no2)c(Cl)c1	10	17	0.1	4.0	-3.5	-5	-1.2	-3
CC(=O)NC(c1cc(F)c2cccnc2c1O)C1CC1 (stereo not given)	.	.	0.7	-1.0	-1.3	14	.	-4
CC(=O)N[C@H]1[C@H](OC2CCCCC2)O[C@H](COC(C)=O)[C@@H](OC(C)=O)[C@@H]1OC(C)=O	-4	-5	-0.9	0.5	1.4	-10	?	-3
CCOc1nc2cnccc2n(CC(=O)Nc2c(F)c(F)cc(F)c2F)c1=O	27	-3	0.3	4.5	-1.1	-8	0.5	-4
COc1cc2nc(C3CCC3)n(N)c(=O)c2cc1OC	2	3	0.9	5.0	-5.6	4	-4.5	4
O=C(CCNC(=O)c1ccccc1)OCC(=O)c1ccccc1	-15	7	1.2	-1.4	-4.0	-6	0.9	5
COc1cc(NC(=O)CSc2nnc3c(C)cc4cc(C)cc(C)c4n23)c(C(=O)O)cc1OC	-14	0	-0.9	0.8	-1.6	-7	3.3	2
CC1CCCN(C(=O)COC(=O)c2cc(-c3cccs3)nn2-c2ccccc2)C1 (stereo not given)	9	0	-0.4	3.0	2.8	-4	-1.5	8
COc1ccccc1OCCCn1c(=O)oc2ccc(C)cc21	5	-8	0.0	2.1	-5.0	.	-0.9	7
COc1cc(C(=O)OCC(=O)NC(C)CCc2ccccc2)cc(OC)c1OC (stereo not given)	1	0	0.3	5.4	3.4	-6	-6.0	-12
Cn1c(=O)[nH]c(Nc2ccc(F)cc2)c([N+](=O)[O-])c1=O	-9	-10	-2.2	-0.9	2.6	4	3.1	3
CCOC(=O)CN1C(=O)/C(=C/c2ccccc2Br)Oc2ccccc21	-7	0	0.6	-392	3.3	1	3.8	-6
COc1cc(S(=O)(=O)Nc2cccc3cn[nH]c23)c(OC)cc1Cl	8	3	.	2.6	.	.	1.9	-4
COc1cccc(OC)c1OCCCOc1ccc([N+](=O)[O-])cc1Cl	9	21	-0.1	2.8	7.1	-6	-3.3	-10
CCN(CC)C(=O)OCc1c(-c2cccc(OC)c2)ncc2ccccc12	.	.	-1.0	0.8	0.7	5	.	-13
Cc1nc(=O)c(-c2ccccc2)c(C)n1-c1cccc(C(=O)O)c1	-4	-4	-0.4	-0.6	-0.2	-2	?	0

Compound activity (PubChem)
